Source: PubChem (National Center for Advancing Translational Sciences (NCATS))
gsp ag – agonists of gsp mutant (McCune-Albright syndrome) | gsp mutant cells, cAMP HTRF, 30 min; control for the full effect not named in the record | Potency, µM (doses to about 76.9 µM), for the others: at the top dose activation (cAMP increase), most hits filed as activators | 340,000 compounds, 0.13% hits; active = well fitted activation curve with a large enough effect; inconclusive = small, poorly fitted or top-dose-only effect, or another doubt; inactive = no such curve, though single readings can be large or run the other way; cell line not stated here;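 note: phosphodiesterase inhibitor Ro 20-1724 added with compounds to block cAMP breakdown; potency is the fitted concentration of half-maximal effect; nearly all actives have a fitted effect of over 60% in size; about a fifth of the inactives were tested at one dose only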
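Cells in DMEM/10% FBS with G418 were pretreated with compounds in DMSO plus […] (300 uM stock) for 30 min at 37C. cAMP was measured by HTRF (cAMP-d2 plus anti-cAMP antibody-K) after 30 min at room temperature.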
CtBP-E1A blk – inhibitors of CtBP/E1A interaction; AlphaScreen GST-E1A/His-CtBP binding, 1536-well; hits give low values; control for the full effect not named in the record; activity change, % (concentration not given with the values); 340,000 compounds, 0.49% hits; AID 651724; in the data active means activity change below about -65%; inconclusive means about -30% to -65%; inactive means above about -30%; note: % is set by controls: 0 for no effect and ±100 for the full control effect
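Homogeneous bead-based format: GST-tagged E1A captured on glutathione donor beads, His-tagged CtBP on nickel acceptor beads; compounds precede bead addition by 2 h at 37 °C.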
D2 agonist – agonists of human D2 dopamine receptor (beta-arrestin) | P14416 | DiscoveRx PathHunter D2 beta-arrestin, luminescence, 90 min; 100% = 57 uM dopamine signal | activation, % (test concentration not listed) | 360,000 compounds, 0.084% hits; in the data active = activation above about 40%; inconclusive = about 15% to 40%; inactive = below about 15%; note: compound concentration not given in the record; the text of the record calls up to 30% inactive
Target sequence (P14416 whole entry, looked up): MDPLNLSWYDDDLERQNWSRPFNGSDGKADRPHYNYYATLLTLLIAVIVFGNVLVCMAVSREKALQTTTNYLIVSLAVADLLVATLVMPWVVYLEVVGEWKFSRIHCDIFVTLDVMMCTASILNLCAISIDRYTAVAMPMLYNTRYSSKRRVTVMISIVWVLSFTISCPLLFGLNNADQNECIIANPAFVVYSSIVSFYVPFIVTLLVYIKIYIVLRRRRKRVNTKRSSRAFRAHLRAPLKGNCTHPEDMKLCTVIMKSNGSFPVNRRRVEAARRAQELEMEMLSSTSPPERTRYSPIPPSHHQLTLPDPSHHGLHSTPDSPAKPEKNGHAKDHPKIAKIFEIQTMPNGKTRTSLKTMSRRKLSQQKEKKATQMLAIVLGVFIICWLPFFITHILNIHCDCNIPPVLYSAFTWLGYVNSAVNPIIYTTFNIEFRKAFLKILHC
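DiscoveRx PathHunter D2 beta-arrestin cells (2,100/well) attached overnight, then compound-stimulated 90 min at 37 C in HBSS/10 mM HEPES/0.1% Tween-20 buffer; beta-galactosidase complementation read by luminescence after 1 h at ambient temperature. Dopamine 57 uM final (EC100) as control.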
gsp antag – antagonists of gsp mutant (McCune-Albright syndrome); gsp-mutant cells, cAMP HTRF, 30 min; control for the full effect not named in the record; Potency, µM (series often up to 76.9 µM), inactives show top-dose activity change, negative = inhibition, most hits filed as inhibitors; 340,000 compounds, 0.4% hits; AID 624288; active = falling curve of any shape with a large fitted effect; inconclusive = falling curve, mostly with a smaller effect; inactive = flat or rising curve; cell line not stated here;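 note: intracellular cAMP measured with PDE inhibitor Ro 20-1724 present during compound exposure; potency is the fitted concentration of half-maximal effect; % is set by controls: 0 for no effect and ±100 for the full control effect; nearly all actives have a fitted effect of over 65% in size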
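G418-selected cells were plated in DMEM/10% FBS for 16-24 h at 37C, then treated with compounds plus the PDE inhibitor […] (300 uM solution added) for 30 min at 37C. Intracellular cAMP was measured by HTRF after 30 min lysis at room temperature.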
D2 PAM – potentiates the human D2 dopamine receptor allosterically | DiscoveRx D2 beta-arrestin cells, luminescence, 90 min; 100% = 57 uM dopamine signal | potentiation, % (no concentration beside the values) | 360,000 compounds, 0.23% hits | AID 624464; active = potentiation of 50% or more; inconclusive = 30% to 50%; inactive = 30% or less;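 note: compound concentration not given in the record; tested on top of an EC20 dose of dopamine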
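PathHunter D2 cells, attached overnight at 37 deg C, received compound in DMSO plus dopamine at EC20 (50 nM final) for 90 min at 37 deg C. Beta-arrestin recruitment was read as luminescence after 1 h with detection reagent at ambient temperature.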
Six1-Eya2 inh – Six1/Eya2 interaction inhibition | 360,000 compounds, 0.56% hits | AlphaScreen GST-Six1/His-Eya2 binding, biochemical; hits give low values; control for the full effect not named in the record | activity change, % (concentration not given with the values) | AID 651725; in the data active = activity change below about -65%; inconclusive = about -30% to -65%; inactive = above about -30%; note: % is set by controls: 0 for no effect and ±100 for the full control effect
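Compounds are tested against tagged Six1 and Eya2 proteins bridged by glutathione donor and nickel acceptor beads; after a one-hour incubation at 37 °C without light, AlphaScreen emission is recorded.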
An asterisk follows results filed as active; u = inconclusive; x = not tested or not shown; [ ] = dose if it differs, or a comment.

SMILES | gsp ag | CtBP-E1A blk | D2 agonist | gsp antag | D2 PAM | Six1-Eya2 inh
COc1ccccc1C(=O)NCc1ccccc1 | -1% | -2 | -1.0 | -8% | -6 | 3
Cc1cccc(-c2nnc(NC(=O)c3ccc(N4C(=O)CCC4=O)cc3)s2)c1 | -45%[inhibitor] | -17 | 3.4 | -12% | -3 | 2
O=C1NC(C(=O)O)=CC(c2cccc(Cl)c2Cl)N1 (centres undefined) | x | 7 | -3.1 | 4% | -2 | 3
CCOC(=O)C1(C)CCN1C(=O)c1ccc(OC)c(C(F)(F)F)c1 (centres undefined) | x | 5 | 9.5 | x | 4 | 5
CC1S/C(=N/N=C/c2cccc([N+](=O)[O-])c2)NC1=O (centres undefined) | 22% | x | -3.4 | 2% | -20 | -22
CC1C(=O)N(Cc2cn(Cc3ccco3)nn2)CCS(=O)(=O)N1Cc1ccc(-c2ccccc2Cl)cc1 (centres undefined) | x | -4 | -5.3 | x | -3 | -7
CCc1ccc(/C=C2\SC(=S)N(CCCC(=O)Nc3cc(C)on3)C2=O)cc1 | -53%[inhibitor] | 1 | -1.8 | x | 0 | 8
CCCCN(Cc1ccccc1)C(=O)CCN1C(=O)C2C3C=CC(C3)C2C1=O (centres undefined) | u | 0 | 2.1 | 0% | 0 | 1
O=C(Nc1ccccc1Cl)c1cc(C2CCCCN2S(=O)(=O)c2ccccc2)on1 (centres undefined) | x | 4 | -4.4 | x | -5 | -1
COCOc1cccc(CN2CCC(C)(Oc3cccc(C#N)c3)C2)c1 (centres undefined) | x | -14 | -4.4 | x | -38 | -21
O=C(NCc1cccc(C(F)(F)F)c1)c1ccc2sc([C@@H]3O[C@H](CO)[C@H](O)[C@H](O)[C@H]3O)nc2c1 | x | 9 | -10.0 | x | -24 | 4
Cc1ccc(NC(=O)c2cccc(NC(=O)/C=C/c3ccco3)c2)cc1C | 1% | 2 | -2.6 | -5% | -30 | -14
Cc1ccc(S(=O)(=O)N2CCC(C(=O)N/N=C/c3cccnc3)CC2)cc1 | 21% | -3 | -9.8 | -7% | -12 | -1
COc1ccc([C@H]2CC(=O)C=C(c3ccccc3Oc3ccccc3)C2)cc1 | -45%[inhibitor] | 6 | -4.9 | -4% | -5 | -2
O=C(O)c1cc(-n2[nH]c(=O)c3ccccc3c2=O)ccc1Cl | 4% | 2 | 2.5 | 10% | 1 | 3
CCCSc1nc2c(c(=O)n1CC)SC(C)C2 (centres undefined) | 6% | 7 | -4.4 | 5% | -2 | -8
CCN(CC(=O)Nc1ccc(NC(C)=O)cc1)C(=O)c1ccc2c(c1)OCCO2 | 16% | x | -3.9 | 1% | -9 | 9
C/C(=N\Nc1cc(C)nc(-c2ccccc2O)n1)c1ccccc1O | 23% | -2 | -5.2 | 45µM* | -1 | 1
Cc1cc(S(=O)(=O)Nc2c(C)nc3nc[nH]n3c2=O)ccc1F | 15%[15.4 µM] | 17 | -0.4 | 0% | -5 | 7
Cc1ccc(/C=C/C(=O)N2CCC(Cc3ccccc3)CC2)cc1 | -5% | -4 | -1.9 | -25% | -7 | 0
CCOC(=O)C1=C(c2ccccc2)Nc2ncnn2C1c1ccc(O)cc1 (centres undefined) | -1%[15.4 µM] | -14 | -1.9 | 2% | -3 | 0
O=C(c1ccco1)N1CCN(S(=O)(=O)c2cccc(C(F)(F)F)c2)CC1 | 3% | 4 | -4.7 | 8% | -11 | -1
Cc1ccc2nc(SCC(=O)NCC3CCCO3)c(C#N)cc2c1 (centres undefined) | u | -10 | -0.2 | -15% | 4 | 7
CSc1nnc(C)c(/C=C/Nc2ccc(F)cc2F)n1 | 22% | -18 | 3.4 | -5% | -16 | u
CN1CCN(c2nc(-c3ccccc3)ncc2S(=O)(=O)c2ccccc2)CC1 | -12%[15.4 µM] | -24 | -7.7 | 3% | -6 | -16
CCOC(=O)C1(C)CCN1C(=O)c1ccc(OC)cc1OC (centres undefined) | x | 8 | 3.3 | x | -2 | 3
c1ccc(C2=Nn3c(nnc3-c3n[nH]c4c3CCC4)SC2)cc1 | -33% | -8 | -2.5 | -5% | -23 | -21
O=C(C[C@H]1C/C=C\C[C@H](NC(=O)OCC2c3ccccc3-c3ccccc32)C(=O)OC[C@H](Cc2ccccc2)NC1=O)N[C@H](CO)Cc1ccccc1 | x | -4 | -4.3 | -4% | -6 | 2
CCn1c(SCC(=O)Nc2nc(C)cs2)nnc1-c1ccco1 | -27% | -1 | 0.8 | -5% | 1 | -1
Cc1ccccc1N1C(=O)CC(N2CCN(C(=O)c3ccco3)CC2)C1=O (centres undefined) | 15% | 2 | -0.3 | 10% | -1 | 5
Cc1ccccc1N=Nc1c(C)[nH]n(-c2ccccc2)c1=O | 4%[15.4 µM] | 2 | -2.3 | -1% | -5 | -5
CC1CCN(S(=O)(=O)c2ccc(S(=O)(=O)NCc3cccnc3)cc2)CC1 | 18%[15.4 µM] | -11 | 1.3 | -37% | 3 | 9
Cc1cc(C)cc(C(=O)Nc2ccc(NC(=O)c3cccs3)cc2)c1 | -51%[inhibitor] | 6 | 2.4 | -17% | -21 | -2
CC1CN(C)C(C)CC1NCc1ccc2c(c1)OCO2 (centres undefined) | -38%[inhibitor] | -2 | -2.1 | 11% | -28 | 0
C[C@@H]1CN([C@H](C)CO)C(=O)CCCn2nncc2CO[C@@H]1CN(C)S(=O)(=O)c1ccc2c(c1)OCCCO2 | -2% | -14 | -3.8 | x | -1 | 0
O=C1Nc2cc(Cl)c(Cl)cc2N(O)N1c1ccc(Cl)c(Cl)c1 | -4% | 8 | -1.5 | 1% | -10 | 4
O=[N+]([O-])c1ccn(-c2nc(-c3cccs3)cc(C(F)(F)F)n2)n1 | -49%[inhibitor] | x | -3.1 | -1% | -6 | -4
CCOCCCN(C(=O)Cn1nnc(-c2ccc(OC)c(OC)c2)n1)C(CC)C(=O)NC1CCCC1 (centres undefined) | -2%[15.4 µM] | -4 | 1.2 | 6% | 6 | 3
CC1=NN(C(N)=S)C(=O)C1N=Nc1c(Br)cc(Br)cc1Br (centres undefined) | 9% | -18 | -5.5 | -10% | -9 | -10
O=C(NCCCN1CCOCC1)c1cc(C(=O)C2CCCCC2)c[nH]1 | 5%[15.4 µM] | -1 | -3.1 | 14% | -3 | 2
CCOc1cc(/C=N\NC(=O)c2ccc(NC(=O)C(C)(C)C)cc2)ccc1OC(=O)c1ccc(C)cc1 | -16% | 15 | -0.2 | 10% | -1 | 4
Cc1ccc(C(=O)NC2CCN(S(=O)(=O)c3ccc(C)cc3)CC2)cc1 | 0%[15.4 µM] | -10 | -3.4 | -25% | -8 | -4
O=C(COC(=O)Cc1ccc(Cl)cc1Cl)Nc1ccccc1OC(F)F | -4%[15.4 µM] | 14 | 1.4 | 1% | -1 | 6
CCc1nc(N2CCCC2C(=O)O)c2oc3ccccc3c2n1 (centres undefined) | -22% | 7 | 1.4 | -1% | -12 | 4
Cc1ccc(N(CC(=O)NCC(O)c2ccccc2)S(=O)(=O)c2ccc(C)cc2)cc1 (centres undefined) | -3%[15.4 µM] | -11 | -0.9 | -10% | -6 | 0

Shown as a hit in gsp antag, among the entries above:
SMILES | gsp ag | CtBP-E1A blk | D2 agonist | gsp antag | D2 PAM | Six1-Eya2 inh
C/C(=N\Nc1cc(C)nc(-c2ccccc2O)n1)c1ccccc1O | 23% | -2 | -5.2 | 45µM* | -1 | 1

Following part:
SMILES | gsp ag | CtBP-E1A blk | D2 agonist | gsp antag | D2 PAM | Six1-Eya2 inh
O=Cc1cnc(N2CCOCC2)nc1 | 6%[15.4 µM] | 6 | -3.6 | 3% | -3 | 14
COc1cccc2cc(C(=O)N3CCc4ccccc4C3)c(=O)oc12 | 0% | -7 | -2.7 | 7% | -1 | -7
COCC(=O)Nc1ccc(N2CCCC2)c(S(=O)(=O)Nc2ccccc2OC)c1 | u | x | -4.0 | -8% | -12 | -13
CCCN1C(=O)CSC1=Nc1ccccc1 | -23% | x | 1.3 | 18% | -9 | 7
COc1ccc(-n2c(=O)c3ccccc3n(CC(=O)OCc3ccccc3)c2=O)cc1OC | 2%[15.4 µM] | 3 | -1.7 | -7% | -4 | 6
Nc1c(-c2cccs2)cnn1-c1nc(-c2ccc(Cl)cc2Cl)cs1 | 12% | -10 | 0.0 | -4% | -6 | -1
CCC(C)NC(=O)CSC1=Nc2ccccc2C2=NC(c3ccccc3)C(=O)N12 (centres undefined) | -25% | 7 | -6.2 | -16% | -19 | 1
Cc1ccc(Cn2cccc(NC(=O)NC3CCCCC3)c2=O)cc1 | -3% | -6 | -1.7 | -16% | 4 | -2
N#CCCn1cc(/C=N/O)c(-c2ccc(-c3ccccc3)cc2)n1 | 5% | -5 | -0.9 | 4% | -1 | -4
O=C(NCC(=O)N(CC1CCCO1)C1(C(=O)NC2CCCC2)CCCCC1)c1ccccc1 (centres undefined) | -15% | -1 | -0.7 | -8% | -9 | 2
CCC(=O)OCc1c(C(F)(F)F)nn(C)c1Oc1cccc(C(F)(F)F)c1 | -2% | 37 | -2.9 | -23% | 1 | 26
N#Cc1ccc(C(=O)N2CCCCC2c2cc(C(=O)Nc3cccc(C#N)c3)no2)cc1 (centres undefined) | x | 0 | -1.2 | x | -7 | 6
CS(=O)(=O)Oc1ccc2c(c1)O/C(=C\C=C\c1ccccc1)C2=O | u | -12 | 2.5 | 2% | -3 | 1

Reformatted with tabs: 5 of the compounds above.
molecule	gsp ag	CtBP-E1A blk	D2 agonist	gsp antag	D2 PAM	Six1-Eya2 inh
O=Cc1cnc(N2CCOCC2)nc1	6%[15.4 µM]	6	-3.6	3%	-3	14
COc1cccc2cc(C(=O)N3CCc4ccccc4C3)c(=O)oc12	0%	-7	-2.7	7%	-1	-7
COCC(=O)Nc1ccc(N2CCCC2)c(S(=O)(=O)Nc2ccccc2OC)c1	u	x	-4.0	-8%	-12	-13
CCCN1C(=O)CSC1=Nc1ccccc1	-23%	x	1.3	18%	-9	7
COc1ccc(-n2c(=O)c3ccccc3n(CC(=O)OCc3ccccc3)c2=O)cc1OC	2%[15.4 µM]	3	-1.7	-7%	-4	6
